CapD inh – Bacillus anthracis CapD inhibitors, primary screen, biochemical, fluorescence intensity; z-score (test concentration not listed); 0.23% of 140,000 active; purified CapD enzyme, fluorescence intensity read-out; hits give low values; some hits fall short of the stated cut;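 active = z-score under -4 in either of two replicates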;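 also: stock transfer was 100 nL into about 40 µL; score is relative to mean and spread of the plate; one replicate is shown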
AID504770 – growth inhibition of E. coli YBA685, primary screen, V. cholerae RctB inhibitors | 0.27% of 130,000 active | AID 504770, 2011 | E. coli YBA685 rctB-dependent plasmid, OD600 growth, 3 h; hits give low values | z-score (test concentration not listed);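 active = z-score under -2 on both plates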;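 also: wells of about 30 µL received 100 nL stock; score is relative to mean and SD of the test wells; the first replicate is given; strong numbers were not always called active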
Numbers without * were called inactive; x = no result given. Some of the compounds tested (hit frequency here may not be typical).

Each structure is followed by: AID504770 | CapD inh
> CCOC(=O)C(Cc1c[nH]c2ccccc12)NC(=O)COc1cc(C)ccc1C(C)C (stereo not drawn)
→ x | -0.15
> CCCc1ccc(NC(=S)OCC)cc1
→ 2.9 | -1.4
> O=C1CC(C(=O)NC2CCCCC2)C2(CCCCC2)O1 (stereo not drawn)
→ -0.5 | 0.34
> Cn1c(=O)[nH]c2c(c1=O)C(c1ccc(F)cc1)C1=C(COC1=O)N2 (stereo not drawn)
→ 0.05 | x
> Clc1ccc(-c2cnc(SCc3ccc(Cl)c(Cl)c3)nc2)cc1
→ x | -0.9
> Cc1nc(N)nc2c1C(=O)CC(c1ccccc1)C2 (stereo not drawn)
→ 0.2 | x
> CN(C)C1(CN)CCCCC1
→ 0.9 | x
> Cc1ccsc1C=Nc1cccc2c(=O)[nH][nH]c(=O)c12
→ 1.6 | 40
> O=C(c1ccco1)N1CCN(c2ncnc3sc4c(c23)CCCC4)CC1
→ -0.3 | -0.29
> Cc1ccc(Cn2c(/N=C/c3ccc(Br)cc3)nc3ccccc32)cc1
→ -0.9 | -0.04

Profiles, quoted from the list. Order of values: AID504770, CapD inh
Cn1c(=O)[nH]c2c(c1=O)C(c1ccc(F)cc1)C1=C(COC1=O)N2 (stereo not drawn) is entered as 0.05, x
O=C(c1ccco1)N1CCN(c2ncnc3sc4c(c23)CCCC4)CC1 is entered as -0.3, -0.29
Cc1ccsc1C=Nc1cccc2c(=O)[nH][nH]c(=O)c12 is entered as 1.6, 40
Cc1nc(N)nc2c1C(=O)CC(c1ccccc1)C2 (stereo not drawn) is entered as 0.2, x
CCOC(=O)C(Cc1c[nH]c2ccccc12)NC(=O)COc1cc(C)ccc1C(C)C (stereo not drawn) is entered as x, -0.15

More compounds:
Each structure is followed by: AID504770 | CapD inh
> CCOc1ccccc1C1CC(=O)Nc2c1c(=O)n(C)c(=O)n2C (stereo not drawn)
→ -0.8 | 0.27
> CCN(CC)CCn1c2ccccc2c2nc3ccccc3nc21
→ x | 0.085
> CC(C)N(C(=O)CSc1nnc(COc2ccc(Cl)cc2Cl)o1)c1ccccc1
→ x | 0.3
> CC(=O)OCC(=O)[C@@]1(O)CCC2C3CCC4=CC(=O)C=CC4(C)C3C(=O)CC21C (stereo partly drawn)
→ -1.9 | 0.43
> Cc1csc(=Nc2c(C)n(C)n(-c3ccccc3)c2=O)n1Cc1ccccc1
→ -0.5 | x
> c1ccc2c(c1)ccc1ncccc12
→ x | 29
> O=C(CSc1ccc(Cl)cc1)N1CCN(c2ncccc2C(F)(F)F)CC1
→ -0.55 | 0.79
> COc1ccc(C(=O)N2CCN(S(=O)(=O)c3cc(Cl)ccc3OC)CC2)cc1
→ 0.2 | 0.48
> O=C(NNS(=O)(=O)c1ccccc1F)c1sccc1-n1cccc1
→ x | -0.57
> COc1ccc(/C=N/NC(=O)c2ccccc2Br)c(OC)c1C
→ x | -0.45
> Brc1ccc(CN2CCN(Cc3ccccc3)CC2)s1
→ -0.25 | -0.29
> Cc1ccc(O)c(C(=O)c2cnn(C(=O)c3cccc(S(=O)(=O)N4CCCC4)c3)c2)c1
→ -0.35 | x
> CCOC(=O)c1c(C)[nH]c(C)c1C(=O)COC(=O)CCC1CCCC1
→ 0.1 | x
> CCN(C(=O)CSc1nnc(-c2ccccc2)c(-c2ccccc2)n1)C1CCS(=O)(=O)C1 (stereo not drawn)
→ 0.35 | x
> COC(=O)CSC1=C(C#N)C(c2ccc(OC)c(OCc3ccccc3)c2)CC(=O)N1 (stereo not drawn)
→ x | -0.15
> Cc1ccc(-c2noc(C3CCN(S(=O)(=O)c4ccc(Cl)cc4)CC3)n2)cc1
→ x | -0.64
> O=C(NCc1ccccc1)c1cnc2n(c1=O)CCS2
→ 0.3 | 0.68
> C=CCn1c(C)cc(C(=O)COC(=O)c2ccc(S(=O)(=O)N3CCCC3)cc2)c1C
→ 2.5 | x
> CCC1(CC)Cc2ccccc2C(N)=C1C#N
→ -0.2 | -1
> CCOc1ccc(Br)cc1C=C1C(=O)NC(=S)NC1=O
→ x | -0.32
> O=C(C1CCCN1)N1CCOCCOCCOCC1 (stereo not drawn)
→ 0.05 | x
> COc1ccc(OCC(=O)NC(C)(C)C)cc1
→ -0.05 | 0.03
> CS(=O)(=O)N(Cc1nc(-c2cccs2)no1)c1ccc(F)cc1
→ -0.2 | x
> CCN(CC)S(=O)(=O)c1cc(-c2nn(C)c(=O)c3ccccc23)ccc1C
→ 0.05 | -0.47
> Cc1nn(-c2ccccc2)c(C)c1-c1nc2ccccc2[nH]c1=O
→ -2.8 | x
> O=C(O)CSCC(=O)N1CCCN(c2ccc(C(F)(F)F)cn2)CC1
→ -0.45 | 8.2
> COc1ccc(-c2nnc3sc(C(C)N4C(=O)c5ccccc5C4=O)nn23)cc1 (stereo not drawn)
→ -0.25 | x
> Nc1nc2ncc(CNc3ccc(C(=O)N[C@@H](CCC(=O)O)C(=O)O)cc3)nc2c(=O)[nH]1
→ 0.05 | -0.035
> COC(=O)c1ccc(COc2coc(CN3c4ccccc4CC3C)cc2=O)cc1 (stereo not drawn)
→ -0.5 | x
> CCOC(=O)C1=NN(c2ccccc2)C2(S1)c1ccccc1C(c1ccc(Cl)cc1)=NN2c1ccccc1 (stereo not drawn)
→ x | -0.48
> O=C(Nc1cc(C(F)(F)F)cc(C(F)(F)F)c1)C(F)(F)F
→ x | -0.15
> O=C(O)CCc1ccc(-c2cccs2)n1CC(=O)Nc1ccccc1
→ 0.1 | x
> Cc1ccc(C(=O)N2CC(=O)NC(=O)C2)cc1
→ -0.65 | x
> CC(=O)Nc1ccc(S(=O)(=O)NC(C)C(O)c2ccccc2)cc1 (stereo not drawn)
→ x | 0.39
> CC(=O)N1CN(Cc2ccccc2)Cc2c1sc1c2CCCC1
→ -0.35 | 0.08
> CCOC(=O)C1=C(C)NC(SCC(=O)O)=C(C#N)C1c1ccco1 (stereo not drawn)
→ -0.3 | x
> CC(C)C(NC(=O)C1CCCCC1)C(=O)NCc1ccco1 (stereo not drawn)
→ -0.2 | 0.085
> Cc1nc(S(=O)(=O)N2CCCCC2c2cccnc2)cn1C (stereo not drawn)
→ -0.1 | -0.62
> O=C(/C=C/c1ccc(F)cc1Cl)NNC(=O)OCC1(c2ccc(Cl)cc2)CC1
→ x | 7.4
> OC(CNCC1CCCO1)Cn1c2ccccc2c2ccccc21 (stereo not drawn)
→ -0.7 | x
> Cc1nn(C(=O)Nc2ccccc2)c(C)c1Oc1ccccc1
→ -0.75 | 0.61
> CC1SC(=N)N(c2ncc(Cc3ccccc3Cl)s2)C1=O (stereo not drawn)
→ 0.25 | x
> CC(Sc1nc2ccccc2s1)C(=O)O (stereo not drawn)
→ x | 0.095
> COc1ccc(-c2cc(C(F)F)n3ncc(C(=O)N4C(C)CCCC4C)c3n2)cc1 (stereo not drawn)
→ 1.6 | 6.7
> COc1ccc(OC)c(C(O)c2nc3ccccc3n2C(C)C)c1 (stereo not drawn)
→ -0.45 | -0.14
> COc1cc(C)nc(N(Cc2ccccc2)S(=O)(=O)c2ccccc2)n1
→ x | -1.7
> O=C(O)CCn1[nH]c(=O)c2ccccc2c1=O
→ 1.6 | x
> CC(=O)Nc1cccc(Cn2cccn2)c1
→ 0.15 | 0.41
> O=C1CC(N(O)c2ccccc2)C(=O)N1Cc1ccccc1 (stereo not drawn)
→ 0.75 | x
> CC(C)C(NC(=O)c1ccc(Cl)cc1)C(=O)NCC1CCCO1 (stereo not drawn)
→ -0.05 | x

(cont.)
Each structure is followed by: AID504770 | CapD inh
> COc1ccc(CCN(C)C(=O)COc2ncnc3ccccc23)cc1OC
→ 0.15 | x
> CCN(C(=O)Cn1c(-c2ccco2)nc2ccccc21)c1ccccc1
→ 1.6 | 2.3
> N#Cc1c(Cl)cccc1NC1CCCCNC1=O (stereo not drawn)
→ -0.15 | 8.6
> Cc1ccccc1N1C(=O)C2C(C1=O)C1(C(C)C)C=CC2(C)CC1 (stereo not drawn)
→ x | 0.57
> CCOC(=O)Nc1cccc(Nc2ccccc2)c1
→ 1.1 | -0.015
> CCOc1ccc2nc(NC(=O)Nc3ccc(F)cc3)sc2c1
→ -0.45 | -0.6
> CN(C)/C=C/C(=O)c1csc(-c2ccccc2)n1
→ -0.35 | -3.8
> Cn1c(=O)c2cnc(-c3ccccc3)nc2n(C)c1=O
→ -2.6 | -0.07
> C=CCn1c2ccccc2c2nnc(SCCC)nc21
→ -0.45 | -0.66
> CC1(C)CC(=O)C2=C(C1)c1c(ccc3ncccc13)NC2c1ccc(-c2ccccc2)cc1 (stereo not drawn)
→ x | 37
> COc1ccc(C2C(C#N)=C(N)OC3=C2C(=O)CC(C)(C)C3)cc1COc1cccc(Cl)c1 (stereo not drawn)
→ x | 0.26
> CC(=O)Nc1ccc2c(c1)nc1n2CCN(Cc2ccccc2)C1
→ -1.6 | 1.1
> CCN(CC)CC(=O)Nc1scc2c1c(=O)oc1ccccc12
→ 0.05 | 1.2
> CC(COC(=O)NNC(=O)CC1Sc2ccccc2NC1=O)N(Cc1ccccc1)Cc1ccccc1 (stereo not drawn)
→ x | -0.36
> COc1cc2c(cc1NC(=O)CCC1CCCCC1)oc1ccccc12
→ -0.05 | 5.4
> CC(Oc1ccccc1)C(=O)Nc1ccc(Cl)cc1 (stereo not drawn)
→ 0.55 | 0.29
> CN(C)CCNC(=O)c1cn(-c2ccccc2)nc1-c1cccnc1
→ 0.45 | 0.8
> COc1ccc(CC(=O)NCc2ccco2)cc1OC
→ -0.55 | 0.065
> Brc1cc(Br)c2c(c1)C=C1CCCCC1(N1CCOCC1)O2 (stereo not drawn)
→ x | -0.22
> O=C1C(=O)N(CCN2CCOCC2)C(c2ccccc2F)/C1=C(\O)c1ccc(Cl)cc1 (stereo not drawn)
→ x | -0.6
> CCNC(=O)n1cc(-c2ccncc2)c(-c2ccc(C(F)(F)F)cc2)n1
→ x | -0.56
> COc1ccc(N=C2N=C(N)c3ccccc32)cc1
→ -0.6 | -2.1
> O=C(O)/C=C/C(=O)NCc1ccc(-c2cccs2)s1
→ 0 | -0.52
> O=C1CCCC2=C1C(c1ccc(O)cc1)c1c(ccc3ccccc13)N2 (stereo not drawn)
→ -0.45 | 16
> C=CCn1cnc2scc(-c3ccc(C)cc3)c2c1=O
→ -0.75 | 2.6
> CCCCc1nc(-c2ccc(Br)cc2)no1
→ -0.6 | x
> CCC(C)NC(=O)C(Cc1ccccc1)n1cccc1 (stereo not drawn)
→ 0.05 | -0.67
> Cc1ccc(I)c(C(=O)O)c1
→ -0.5 | -0.4
> Cc1cccc(NC(=O)C(CC(C)C)NC(=O)C2CCC(C)CC2)n1 (stereo not drawn)
→ 2.1 | 72
> CCOc1ccc(-c2nc(C#N)c(N(C)C)o2)cc1
→ 0.45 | 5
> CCCCn1c(=O)c2ccccc2n2c(SCC(=O)N3CCN(c4ccccc4)CC3)nnc12
→ -0.05 | x
> CCc1ccc(-c2csc(NC(=O)c3cccs3)n2)cc1
→ 0.85 | 0.36
> O=C(Cn1cnc2sccc2c1=O)NC(=O)NCc1ccco1
→ 0.05 | x
> N#Cc1ccc(COC(=O)Cn2nc(-c3ccccc3)oc2=O)cc1
→ 0.15 | x
> C[N+](C)(C)CC(=O)N1CCN(c2ccc3ccccc3n2)CC1
→ -0.1 | 86
> O=C(Cc1c(F)cccc1Cl)NCCCn1ccnc1
→ 0.95 | x
> CCOc1ccc(C2=NC(c3ccc(OC)cc3)NC(c3ccccc3O)C2)cc1 (stereo not drawn)
→ 0.7 | 0.91
> C=CCNCCOc1ccc(Cl)c(Cl)c1
→ 1.4 | -0.35
> CC1CCc2nc(NN)nc(C(F)(F)F)c2C1 (stereo not drawn)
→ 0 | 0.28
> Nc1snnc1-c1ccc(C(F)(F)F)cc1
→ -1.2 | -0.51

Reformatted: results already given
CCCCn1c(=O)c2ccccc2n2c(SCC(=O)N3CCN(c4ccccc4)CC3)nnc12
  AID504770 = -0.05; CapD inh = x
O=C(Cn1cnc2sccc2c1=O)NC(=O)NCc1ccco1
  AID504770 = 0.05; CapD inh = x

The list continues.
Each structure is followed by: AID504770 | CapD inh
> O=C(CSc1nnc2sc3ccccc3n12)Nc1ccc(Cl)cc1
→ x | -0.035
> Cc1nnc(SCC(=O)Nc2ccc3c(c2)OCCO3)n1N
→ 1 | x
> CCSc1nnc(NC(=O)c2c(-c3ccccc3Cl)noc2C)s1
→ -0.25 | -0.045
> CC1CCC(C(C)C)C(OC(=O)C(C(C)C)N2C(=O)C3C4c5ccccc5C(c5ccccc54)C3C2=O)C1 (stereo not drawn)
→ x | -0.92
> O=[N+]([O-])c1ccc(-c2nc(-c3ccc([N+](=O)[O-])cc3)c(-c3ccc(Oc4ccc(-c5nc(-c6ccc([N+](=O)[O-])cc6)[nH]c5-c5ccc([N+](=O)[O-])cc5)cc4)cc3)[nH]2)cc1
→ x | -0.42
> CC1SCC(=O)N(c2cc(Cl)ccc2Cl)C1=O (stereo not drawn)
→ 2.1 | -0.85
> CC(O)(/C=C1/Oc2ccc([N+](=O)[O-])cc2C1N1CCOCC1)C1CC2C=CC1C2 (stereo not drawn)
→ x | -0.26
> CCN1CCCC1CNC(=O)CCCc1cn(CC)c2ccccc12 (stereo not drawn)
→ -0.35 | -0.075
> Cc1ccc(C2=Nc3ccccc3N=C(c3ccc(C(C)(C)C)cc3)C2)c(O)c1
→ x | -0.24
> O=C(NCCC(c1ccccc1)c1ccco1)c1cccs1 (stereo not drawn)
→ 0.35 | x
> Cc1nc2ccccc2nc1OCC(=O)Nc1ccccc1
→ 1.4 | x
> CCOc1ccc(NC(=O)c2ccc(-c3ccccc3F)o2)cc1
→ 0.4 | 0.33
> C=CCN(C)NC(=S)Nc1ccccc1
→ -0.75 | x
> CC(C)COc1cccc(C(=O)O)c1
→ 0.2 | x
> C=CCC1CC(=O)N(c2ccc(C(C)(C)C)cc2)C1=O (stereo not drawn)
→ 0.65 | 1.4
> CCOC(=O)c1ccc(NC(=O)C(CC)Sc2nc3ccsc3c(=O)n2Cc2ccccn2)cc1 (stereo not drawn)
→ -0.9 | -0.54

Compound activity (PubChem BioAssay)
